KCNQ2 enhance – potentiators of rat KCNQ2 potassium channel | CHO-K1 KCNQ2, FluxOR thallium flux fluorescence; hits give high values | B-score at 10 µM | hit rate 0.54% among 310,000 | AID 2239, 2010;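 active = fluorescence ratio B-score at least 3 SD of library B-scores, with initial fluorescence B-score within 3 SD, cut at about 5.3 in these data; same plate scores as AID 2156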;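 also: B-score of peak minus minimum over baseline fluorescence ratio after K+ and Tl+ stimulus; positive B-score means potentiation of KCNQ2 with more thallium influx and brighter signal; only the inactives scoring about 0 or higher are listed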
Target sequence (O88943 whole entry, looked up): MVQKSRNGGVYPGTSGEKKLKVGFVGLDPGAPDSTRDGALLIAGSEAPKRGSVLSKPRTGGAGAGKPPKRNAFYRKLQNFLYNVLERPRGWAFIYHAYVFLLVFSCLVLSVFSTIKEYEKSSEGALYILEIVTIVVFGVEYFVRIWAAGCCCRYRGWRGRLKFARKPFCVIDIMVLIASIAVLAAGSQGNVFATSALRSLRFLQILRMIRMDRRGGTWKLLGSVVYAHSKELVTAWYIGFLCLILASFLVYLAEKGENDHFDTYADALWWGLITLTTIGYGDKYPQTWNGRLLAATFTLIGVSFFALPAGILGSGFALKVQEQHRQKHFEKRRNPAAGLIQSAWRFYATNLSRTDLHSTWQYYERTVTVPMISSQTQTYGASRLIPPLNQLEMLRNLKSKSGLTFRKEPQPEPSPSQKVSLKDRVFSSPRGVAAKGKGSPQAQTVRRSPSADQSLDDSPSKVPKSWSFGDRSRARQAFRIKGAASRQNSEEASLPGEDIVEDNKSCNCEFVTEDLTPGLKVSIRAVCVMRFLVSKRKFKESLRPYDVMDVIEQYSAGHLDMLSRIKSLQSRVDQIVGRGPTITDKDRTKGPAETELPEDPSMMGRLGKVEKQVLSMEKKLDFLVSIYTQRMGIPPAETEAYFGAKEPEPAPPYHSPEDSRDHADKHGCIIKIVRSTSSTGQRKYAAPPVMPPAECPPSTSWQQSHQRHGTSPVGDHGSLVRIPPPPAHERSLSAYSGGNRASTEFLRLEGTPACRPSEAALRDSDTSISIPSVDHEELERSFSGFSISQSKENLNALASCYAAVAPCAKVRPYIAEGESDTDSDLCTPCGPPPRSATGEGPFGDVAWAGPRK
KCNQ2 enhance baseline – second read-out of KCNQ2 enhance, no call of its own (marks repeat the call); B-score; compound at 10 µM; measured here: initial fluorescence intensity artifact check;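 brightness before thallium and not channel activity; 0 = typical well and far values either way flag optical interference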
* = called active by the depositor.

SMILES | KCNQ2 enhance | KCNQ2 enhance baseline
O=C(CCCn1c(=O)c2sccc2n(Cc2cc(=O)n3ccccc3n2)c1=O)NCc1ccco1 | 0.54 | 0
COc1ccc(CN2C(=O)CCC2(C)C(=O)NC2CCCCC2)c(OC)c1 (configuration not stated) | 0.15 | 0.79
O=C(c1ccco1)N1CCCC(c2nc3c(nnn3Cc3cccc(Cl)c3)c(=O)[nH]2)C1 (configuration not stated) | 0.55 | -0.01
CCOc1ccccc1N1CC(C(=O)Nc2cc(Cl)ccc2-n2cncn2)CC1=O (configuration not stated) | 0.01 | 0.12
COc1ccc(CCNC(=O)C2CCCN(c3ncccn3)C2)cc1 (configuration not stated) | 0.02 | -0.3
O=C1C2CC(O)CN2C(=O)N1c1ccccc1 (configuration not stated) | 0.68 | 0.6
O=C(O)/C=C\C(=O)NCc1ccccc1 | 0.56 | -1.58
CC1CC1C(=O)Nc1nc(-c2ccccn2)cs1 (configuration not stated) | 1.14 | -1.42
Cc1ccc(NC(=O)Cc2nnc(SCC(=O)Nc3nncs3)n2C)cc1 | 1.63 | -0.79
CC(C)C[C@H](N)C(=O)N1CCC(C(=O)N[C@H](C(=O)NC(C)c2ccccc2)C(C)C)CC1 (some centres not stated) | 0.07 | -2.93
CCOc1cc2[nH]c(=O)n(Cc3ccccc3)c(=O)c2cc1OCC | 0.46 | -1.87
COc1ccc(N2C(=O)CSC23C(=O)N2CCCc4cccc3c42)cc1 (configuration not stated) | 3.83 | 1.22
CC(=O)c1sc2nc(-c3ccccc3)cc(C)c2c1N | 0.34 | 0.15
CN1CCN(C(=O)c2ccc(CN(c3ccccc3)S(=O)(=O)c3ccccc3)cc2)CC1 | 0.04 | -0.8
O=C(CCCn1c(=S)[nH]c2ccsc2c1=O)NC1CCCCC1 | 1.3 | -1.29
CCOc1cc(N2CCOCC2)c(OCC)cc1NC(=O)CN1C(=O)C2C3C=CC(C3)C2C1=O (configuration not stated) | 0.06 | 0.89
O=C(NCC(=O)N(c1ccccc1)C(C(=O)NC1CCCC1)c1ccncc1)c1ccco1 (configuration not stated) | 1.13 | 0.68
COc1ccc(S(=O)(=O)n2nc(OC(=O)c3cccs3)cc2NC(=O)c2cccs2)cc1 | 0.76 | -0.08
Cc1ccc(S(=O)(=O)ON=C2CCN(S(=O)(=O)c3ccccc3)CC2)cc1 | 0.06 | -0.94
CC(=O)N1CCN(S(=O)(=O)c2cccc(C(=O)Nc3ccc(F)c(F)c3)c2)CC1 | 1.87 | 0.28
COc1cc(OC)c(S(=O)(=O)N2CCN(C(=O)c3ccco3)CC2)cc1NC(C)=O | 1.77 | -0.53
COC(=O)c1cccc(Nc2nc3ccccc3nc2C)c1 | 1.14 | -1.38
Cc1cc(C(=O)NC2CCCC2)on1 | 0.87 | 0.04
CCOc1ccc(-c2onc(C(F)(F)F)c2-c2cscn2)c(O)c1 | 0.96 | -1.27
COCCCNc1nc(N)c([N+](=O)[O-])c(NC2CCCCC2)n1 | 2.53 | 0.56
O=C(Nc1c2c(nn1-c1ccc(F)cc1)CS(=O)(=O)C2)c1ccc(Br)o1 | 0.01 | 2.23
CCOC1Cc2ccccc2N(C(N)=O)c2ccccc21 (configuration not stated) | 1.28 | -0.42
CC12CCC(C[N+](C)(C)C1)C2(C)C (configuration not stated) | 1.74 | -1.93
O=C(N/N=C/c1ccncc1)C12CC3CC(CC(C3)C1)C2 | 0.18 | 0.35
CCCCN1C(C)=CC(=C2C(=O)c3ccccc3C2=O)C=C1C | 0.34 | 0.33
CCOC(=O)c1c(N)sn(-c2ccccc2)c1=S | 1.13 | 0.52
CC(=O)c1ccc(-n2c(C)c(C(C)=O)c3cc(O)ccc32)cc1 | 0.94 | 0.17
COc1ccc(S(=O)(=O)NCC2CCC(C(=O)N3CCC4(CC3)OCCO4)CC2)cc1 (configuration not stated) | 0.05 | -0.95
Nc1nc(SCC(=O)Nc2ccc(Cl)cn2)n[nH]1 | 1.05 | -2.47
COc1ccc(C(C)=O)cc1COc1cc(C)c(Cl)c(C)c1 | 0.25 | -0.38
CS(=O)(=O)N1CCC(C(=O)Nc2cccc(C(F)(F)F)c2)CC1 | 1.8 | -1.65
CCOC(=O)c1c(-c2ccccc2)nc2ccc(Cl)cn12 | 0.42 | 0
CCCCNC(=O)CCc1c(C)nc2c(c(C)nn2-c2ccccc2)c1C | 0.05 | -1.83
COc1ccc(C(C)=O)cc1CSC(=N)N | 0.02 | -3.29
CCOC(=O)C(Cc1ccc(N)cc1)N1C(=O)c2ccccc2C1=O (configuration not stated) | 0.63 | -0.51
CCn1c(=O)c2cc(C(=O)NCCN3CCOCC3)sc2c2ccccc21 | 3.24 | -3.75
Cn1c(=O)c2c(=O)cc(NNC(=O)C(C)(C)C)[nH]c2n(C)c1=O | 0.85 | -0.73
COc1ccccc1CC(=O)Nc1ccc(S(=O)(=O)N2CCCCC2)cc1 | 0.23 | -0.13
CCOc1ncccc1C(=O)Nc1nc(C(C)(C)C)cs1 | 0.59 | 0.07
COc1ccc(N(CC(=O)NCc2ccc(F)cc2)C(=O)Cn2nnc(-c3ccc(C)o3)n2)cc1OC | 1.11 | -0.34
CN(Cc1ccccc1)C(=O)Nc1ccc(Cl)cc1 | 1.93 | -0.56
CCC(=O)Nc1ccc(N2CCN(Cc3ccccc3F)CC2)cc1 | 1.31 | -0.06
COc1cccc(C(=O)NC(=S)Nn2cnnc2)c1OC | 0.66 | -0.09
Cc1nnc(SCC(=O)NC(=O)NCc2ccco2)s1 | 2.27 | -0.8
Cc1nccn1CCCN1C(=O)CNC1=S | 0.07 | 0.16
Cc1nnc(SCC(=O)NC2CCS(=O)(=O)C2)n1-c1ccccc1 (configuration not stated) | 0.41 | -0.18
COC(=O)COc1ccc2oc(=O)cc(-c3cc4cccc(OC)c4o3)c2c1 | 2.09 | 0
N/C(=N\NS(=O)(=O)c1ccccc1Cl)c1ccccn1 | 0.73 | -0.35
CCOc1ccc(C(=O)CCN2CCCCC2)cc1 | 0.07 | -0.76
COc1ccc(CCNC(=O)Cn2cnc3c2c(=O)n(C)c(=O)n3C)cc1OC | 0.29 | 0.09
O=C(C1CCC1)N1CCc2cc(S(=O)(=O)NCc3ccco3)ccc21 | 0.68 | -1.51
CN1CCN(c2ccccc2/C=C2/C(=O)Nc3ccccc32)CC1 | 0.92 | -3.25
CCc1nc(=O)c(-c2ccccc2)c(C)n1-c1ccccc1 | 0.24 | 2.55
CCOC(=O)Cc1csc(NC(NC(=O)OCC)(C(F)(F)F)C(F)(F)F)n1 | 0.01 | -0.64
CCC1CCCCN1C(=O)CCn1ccnc1 (configuration not stated) | 0.95 | 2.03
Continued.
SMILES | KCNQ2 enhance | KCNQ2 enhance baseline
CC(=O)Nc1cc(C(=O)c2ccccc2)ccc1N1CCOCC1 | 1.38 | -2.07
COc1ccc(Nc2cc(Cl)nc(N)n2)cc1OC | 0.8 | -0.11
COc1ccc2c(C)cc(C)nc2n1 | 0.73 | -0.54
CC(Oc1cccc(Br)c1)C(=O)N1CCCN(C)CC1 (configuration not stated) | 1.31 | -1.97
COC(=O)c1c[nH]n2c(=O)cc(CCl)nc12 | 0.4 | 0.03
CNc1c(NC(=O)c2ccc3c(c2)OCO3)c(=O)oc2ccccc12 | 0.02 | -0.94
O=C(CCSc1ccc(F)cc1)Nc1ccc(-n2cnnn2)cc1 | 0.65 | 0.39
Cc1nn2c(=O)cc(COC(=O)c3ccc(NC(=O)C(C)(C)C)cc3)nc2s1 | 0.14 | -0.37
O=C(CC1SCCNC1=O)Nc1ccc(F)c(Cl)c1 (configuration not stated) | 0.08 | 1.03
CN1CC(=O)Nc2ccc(F)cc2C1=O | 1.53 | -0.19
CNC(=S)/N=C/NOCc1ccc(Cl)cc1Cl | 0.59 | -0.01
O=C(CCc1ccccc1)C(=O)N1CCCC(C(=O)c2cccc(Cl)c2)C1 (configuration not stated) | 2.24 | 1.33
NC(=O)NC(=O)COC(=O)CN1C(=O)C2CCCCC2C1=O (configuration not stated) | 0.97 | 0.1
Cc1c(NC(=O)COC(=O)Cc2ccc(F)cc2)c(=O)n(-c2ccccc2)n1C | 0.23 | -0.42
CC(=O)c1nn(-c2ccc(Br)cc2)cc1C(=O)c1ccccc1 | 0.9 | 1.14
CCOc1ccc(CCNC(=O)CCc2nc3ccccc3[nH]2)cc1OCC | 0.43 | -0.04
CC1=NNC(=O)C1CC(=O)N/N=C/c1ccncc1 (configuration not stated) | 1.87 | -0.05
CCC(CC)C(=O)OCC(=O)Nc1ccc(S(=O)(=O)N2CCOCC2)cc1OC | 0.15 | 0.57
CC(C(=O)Nc1ccccc1)N1CCN(c2ccccn2)CC1 (configuration not stated) | 0.31 | -1.58
Cc1ccc(NCN2C(=O)C3C4C=CC(C4)C3C2=O)cc1 (configuration not stated) | 1.46 | 0.04

Another view of 4 compounds above.
The line under a structure holds: KCNQ2 enhance	KCNQ2 enhance baseline
CNc1c(NC(=O)c2ccc3c(c2)OCO3)c(=O)oc2ccccc12
    0.02	-0.94
O=C(CCSc1ccc(F)cc1)Nc1ccc(-n2cnnn2)cc1
    0.65	0.39
Cc1nn2c(=O)cc(COC(=O)c3ccc(NC(=O)C(C)(C)C)cc3)nc2s1
    0.14	-0.37
O=C(CC1SCCNC1=O)Nc1ccc(F)c(Cl)c1 (configuration not stated)
    0.08	1.03

(further entries)
SMILES | KCNQ2 enhance | KCNQ2 enhance baseline
Cc1ccnc(NC(=O)CNC(=O)c2ccco2)c1 | 0.01 | -0.71
O=C(Nc1nnc(S(=O)(=O)N2CCOCC2)s1)c1ccc(F)cc1 | 1.55 | -0.65
COc1ccccc1N1CCN(C(=O)CN(c2ccc(C)c(C)c2)S(C)(=O)=O)CC1 | 0.18 | -1.81
O=C(Cn1cncn1)N/N=C/c1c2ccccc2cc2ccccc12 | 1.82 | -0.6
COC(=O)c1cc(C#N)c(Oc2ccccc2OC)nc1C | 0.6 | 1.36
CNC(=S)/N=C/NOCc1c(Cl)cccc1Cl | 0.2 | -2.37
CCn1cc(C(=O)N2CCc3ccccc32)c(=O)c2cc(S(=O)(=O)N3CCCC3)ccc21 | 0.13 | 0
CCCCCC1CCC(C(=O)O)CC1 (configuration not stated) | 0.73 | -0.35
O=C(OCc1c(F)cccc1Cl)c1cnc(Cl)c(Cl)c1 | 1.3 | 0.27
COc1cc(OC)cc(C(=O)N[C@H](C(=O)Nc2nc(-c3ccc(F)c(F)c3)cs2)C(C)C)c1 | 0.18 | 1
CCC/C(C)=C/c1ccc(CC)cn1 | 0.59 | 0.21
CC1CCN(C(=O)CSc2nnc(-c3cccnc3)n2C2CCCCC2)CC1 | 0.57 | 0.11
CCOC(=O)Cn1c(=N)n(CCOc2ccc(F)cc2)c2ccccc21 | 0.44 | -0.04
CC(C)OCCCNC(=O)c1ccccc1NC(=O)C1=CSCCO1 | 0.41 | -1.25
COc1ccc(/C=C(\NC(=O)c2ccc(C)cc2)C(=O)NCC2CCCO2)cc1 (configuration not stated) | 0.06 | -1.91
CCOC(=O)c1cc(C)nc(SC)c1C#N | 0.33 | 0.06
COC(=O)Cn1c(C)nc([N+](=O)[O-])c1Br | 0.31 | -0.21
O=C(N/N=C/c1cccc(O)c1)C(=O)N1CCCCCC1 | 0.51 | 1.13
COc1ccc(CC(=O)N/N=C/c2sccc2C)cc1 | 0.37 | 2.17
S=C(Nc1ccc(OCc2ccccc2)cc1)Nc1cccc(Cl)c1Cl | 0.69 | -1.14
COc1ccc(C(O)(CCC(C)C)C(CN2CCOCC2)c2ccccc2)cc1 (configuration not stated) | 1.35 | 0.19
COc1cc(OC)nc(NC(=O)CSc2nc3ccccc3[nH]2)n1 | 0.42 | 0.9
COCCCN(C(=S)Nc1cc(C)cc(C)c1)C(C)c1ccncc1 (configuration not stated) | 0.62 | -2.23
COc1cc(C)c(NC(=O)C(=S)NCc2ccccc2)cc1C | 2.48 | -0.54
COc1ccc(-c2nnc(-c3ccc(F)cc3)o2)cc1 | 0.41 | 0.55
C=CCNc1ccc(N2C(=O)CCCC2=O)cc1[N+](=O)[O-] | 0.62 | 1.1
Cc1cc(S(=O)(=O)N2CCCCC2)ccc1OCC(=O)Nc1ccccc1 | 0.4 | 1.96
CCCc1nc(SCC(=O)NC2CCCC2)c2ccccc2n1 | 1.45 | 0.09
NC(=O)N/N=C/c1ccccc1OC(=O)c1ccccc1Br | 0.05 | 0.49
O=C(CCc1ccccc1)Nc1ccc2c(c1)OCCO2 | 1.87 | -1.64
CC(=O)Nc1ccc(NC(=O)c2c(C)c(-c3ccccc3)nc3ccccc23)cc1 | 0.84 | 0.92

A second format for part of the listing above.
canonical_smiles	KCNQ2 enhance	KCNQ2 enhance baseline
COc1ccc(-c2nnc(-c3ccc(F)cc3)o2)cc1	0.41	0.55
CCCc1nc(SCC(=O)NC2CCCC2)c2ccccc2n1	1.45	0.09
COc1cc(C)c(NC(=O)C(=S)NCc2ccccc2)cc1C	2.48	-0.54
C=CCNc1ccc(N2C(=O)CCCC2=O)cc1[N+](=O)[O-]	0.62	1.1
COc1cc(OC)nc(NC(=O)CSc2nc3ccccc3[nH]2)n1	0.42	0.9
Cc1cc(S(=O)(=O)N2CCCCC2)ccc1OCC(=O)Nc1ccccc1	0.4	1.96
COc1ccc(C(O)(CCC(C)C)C(CN2CCOCC2)c2ccccc2)cc1 (configuration not stated)	1.35	0.19

Structures above that have bromine (5):
SMILES | KCNQ2 enhance | KCNQ2 enhance baseline
O=C(Nc1c2c(nn1-c1ccc(F)cc1)CS(=O)(=O)C2)c1ccc(Br)o1 | 0.01 | 2.23
CC(Oc1cccc(Br)c1)C(=O)N1CCCN(C)CC1 (configuration not stated) | 1.31 | -1.97
CC(=O)c1nn(-c2ccc(Br)cc2)cc1C(=O)c1ccccc1 | 0.9 | 1.14
COC(=O)Cn1c(C)nc([N+](=O)[O-])c1Br | 0.31 | -0.21
NC(=O)N/N=C/c1ccccc1OC(=O)c1ccccc1Br | 0.05 | 0.49

This is a subset, so the mix of outcomes need not match the whole.
